Bioassay records from PubChem BioAssay.
Sa helicase inh = inhibitors of S. aureus replicative helicase, primary screen, biochemical, fluorescence unwinding readout; replicative DNA helicase (DnaC/DnaB), Staphylococcus aureus; purified S. aureus helicase, fluorescence unwinding assay; about half of the hits fall short of the stated cut; inhibition, %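 (tested at about 80 µM)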; actives 0.05% (n = 120,000); AID 485395, 2010;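 active = both duplicates at 50% or more, or one of them with a favoured structure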;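 note: 0% = mean of negative control wells and 100% = mean of positive control wells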
MgrA-DNA mod = S. aureus MgrA activity modulators, primary screen, biochemical, S. aureus Newman, fluorescence polarization. MgrA-DNA binding. inhibition, %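 (about 10 µg/mL by stock and volumes)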. actives 0.13% (n = 84,000). AID 602314, 2012;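 active = above 50% in either of two replicates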;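 note: 0% = protein plus DNA without compound and 100% = DNA alone without protein; higher means less MgrA bound to DNA so lower polarization; one replicate is shown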
Starred values were filed as active, the others as inactive; / = no result given. These rows are one share of the data; rates above refer to the full screens.

SMILES	Sa helicase inh	MgrA-DNA mod
Cc1ccc2nc(N3CCN(c4cccc(C)c4C)CC3)c(-n3nc(C)cc3C)nc2c1	13.0	-0.4
CCN1C(=O)c2ccc(Oc3ccc4c(c3)C(=O)N(CC)C4=O)cc2C1=O	7.0	-1.7
Cn1c(SCC(=O)c2ccc(Cl)s2)nnc1C1COc2ccccc2O1 (centres undefined)	-16.0	/
COc1ccc(NC(=O)c2ccco2)cc1NC(=S)NC(=O)Cc1ccccc1	15.0	3.4
CCC1CC(/C(C)=N/NC(N)=O)OC1=O (centres undefined)	-5.0	-1.5
Brc1ccc(Cn2ncc3ccccc32)cc1	17.0	/
COc1ccccc1C(=O)NCCOc1ccc(C)c(C)c1	12.0	-1.2
N#CC(c1ccc2c(c1)OCO2)N1CCN(C(C#N)c2ccc3c(c2)OCO3)CC1 (centres undefined)	-1.0	-3.4
C=CCNC(=O)c1c(N)n(/N=C/c2ccccc2O)c2nc3ccccc3nc12	9.0	/
CCn1c2ccccc2c2cc(CN(C)Cc3ccccc3)ccc21	10.0	-4.1
Fc1ccc(CSC(=S)N2CCN(C(=S)SCc3ccc(F)cc3)CC2)cc1	/	4.5
COc1cccc(OCC2CCCNC2)c1 (centres undefined)	10.0	-2.3
CC(=O)N(c1ccccc1)c1nc(COC(=O)/C=C/c2cccs2)cs1	7.0	/
O=C(CCCn1c(=O)[nH]c2ccsc2c1=O)Nc1ccc(F)cc1	1.0	/
COc1ccccc1OCC(=O)Nc1ncc(Cc2ccc(F)cc2)s1	13.0	/
Cc1ccc(C(=O)NC(O)(C(F)(F)F)C(F)(F)F)cc1	-18.0	-1.3
Cc1ccccc1-c1nc(C#N)c(NC2CCCCC2)o1	6.0	1.6
Clc1cc2c(c3ncccc13)OCN(CCCN1CCOCC1)C2	19.0	/
O=C1Nc2ccccc2/C1=N\N=C\C1=C(N2CCOCC2)C(=C\c2ccccc2)/CC1	19.0	/
CC(NC(=O)c1ccco1)C(c1cccs1)N1CCN(c2ccccc2)CC1 (centres undefined)	-18.0	/

Entries of single compounds as entered above:
CCC1CC(/C(C)=N/NC(N)=O)OC1=O (centres undefined) reads Sa helicase inh = -5.0; MgrA-DNA mod = -1.5
COc1ccccc1OCC(=O)Nc1ncc(Cc2ccc(F)cc2)s1 reads Sa helicase inh = 13.0; MgrA-DNA mod = /

Next results
SMILES	Sa helicase inh	MgrA-DNA mod
COc1ccc2cc3cc(C(=O)NCCN(C)C)oc3nc2c1	16.0	4.0
Cn1c(=NC(=O)C2=NNC(=O)CC2)sc2ccccc21	-3.0	/
CN(C)S(=O)(=O)c1ccc2c(c1)Cc1cc(S(=O)(=O)N(C)C)ccc1-2	12.0	/
CNS(=O)(=O)c1cccs1	2.0	-0.5
Oc1ccc(Oc2c(F)c(F)c(Oc3ccc(O)cc3)c(F)c2F)cc1	19.0	1.9
COc1ccc(CC(CC(=O)O)C(=O)NCc2ccccc2)cc1 (centres undefined)	5.0	-0.1
CC(=O)NC(C)Cc1c(C(=O)O)[nH]c2ccccc12 (centres undefined)	13.0	/
O=c1[nH]c2c(oc3ccc(Cl)cc32)c(=O)n1-c1ccccc1	2.0	/
Oc1c(C(Nc2ccccn2)c2ccccc2)ccc2cccnc12 (centres undefined)	-9.0	5.0
CCC(=O)N1CCc2cc(S(=O)(=O)N(CC)CC)ccc21	11.0	0.1
COC(=O)c1c(SC)[nH]c2ccccc2c1=O	-2.0	/
CN(C)c1ccc(CN(CC2CCCO2)C(=O)COc2ccccc2)cc1 (centres undefined)	-12.0	/
CCN1CC(O)=C(c2ccccc2)C1=N	10.0	0.2
O=C(COc1ccc2oc3ccccc3c2c1)NCCc1ccccn1	-4.0	/
O=C1Nc2ccc(F)cc2/C1=N/N1CCOCC1	/	-1.4
CC1CN(C(=O)COC(=O)c2ccc(NC(=O)CC#N)cc2)CC(C)O1 (centres undefined)	5.0	/
O=C(OCc1nc2ccsc2c(=O)[nH]1)c1ccc(N2CCCC2=O)cc1	9.0	/
O=S(=O)(c1ccccc1)n1cnc2ccccc21	2.0	-0.7
Cc1cccc(/C=C2\Sc3ccc(C(=O)NC(C)C)cc3N(C)C2=O)c1	10.0	-1.2
CCc1ccc2occ(CC(=O)Nc3ccc(F)cc3)c2c1	-28.0	/
CSc1nc(SC)c2c3c(sc2n1)CN(C)CC3	9.0	/
CC(=O)N1CCC(=NNC(=O)c2cccc(S(=O)(=O)Nc3ccccc3Cl)c2)CC1	12.0	/
O=C(Nc1c(C(=O)N2CCN(Cc3ccccc3)CC2)oc2ccccc12)c1ccccc1	8.0	/
COCCNC(=S)N1CCCC(CO)C1 (centres undefined)	29.0	3.3
O=S(=O)(c1c(F)cccc1F)N1CCCC2CCCCC21 (centres undefined)	-6.0	/
Cc1ccc2occ(C(=O)c3ccccc3Cl)c(=O)c2c1	5.0	/
O=C(Nc1ccccc1-c1nc2ccccc2[nH]1)c1ccc(F)cc1F	-4.0	-0.3
Cc1cccn2c(=O)c(C=Nc3ccc(Cl)cc3)c(Sc3ccccc3)nc12	-2.0	-0.8
O=C(OCN1C(=O)c2ccccc2C1=O)c1ccc(Cl)cc1	10.0	0.2
CC1CCCCN1CCNC(=O)CCc1nnc2n(Cc3ccc(F)cc3)c(=O)c3ccccc3n12 (centres undefined)	7.0	-0.3
CN(CCOc1ccccc1)c1ccc(S(=O)(=O)N2CCCCC2)cn1	9.0	/
COc1ccc(OC)c(/C=C2\Sc3ccccc3NC2=O)c1	/	0.8
COc1ccc2ccccc2c1CN1CCN(C(=O)c2ccccc2F)CC1	3.0	-1.0
O=C1C2C3c4ccccc4C(c4ccccc43)C2C(=O)N1Cc1ccco1 (centres undefined)	-14.0	2.2
CCOc1ccc(-c2cc(CCCC(=O)NCc3cccc(OC)c3)no2)cc1	-21.0	/
NS(=O)(=O)c1ccc(Nc2nc(-c3ccccc3)c3cc(Cl)ccc3n2)cc1	/	2.2
Cc1ccc(C(=O)CSc2ncn(-c3ccccc3)n2)c(C)c1	3.0	-1.6
O=C(O)C1CC1(Cl)Cl (centres undefined)	/	-1.2
Fc1ccccc1-c1nnc2ccc(C(F)(F)F)cn12	-1.0	-1.1
CCN(C(=O)/C=C/c1ccc(C(F)(F)F)cc1)C1CCS(=O)(=O)C1 (centres undefined)	-10.0	/
O=C(O)C1CCCN(C(=O)c2cccc3ccccc23)C1 (centres undefined)	-8.0	/
c1cc2c(cc1C1=Nn3cnnc3SC1)OCCO2	-4.0	/
O=C(NCc1ccccc1)NC(c1ccccc1)c1nnc(-c2ccccc2)o1 (centres undefined)	7.0	/
O=C(Cn1cc(C(=O)C2CCCCC2)c2ccccc21)NCC1CCCO1 (centres undefined)	8.0	/
COc1ccc(/C=C2\SC(=S)N(CCC(=O)N(Cc3ccccc3)C(C)(C)C)C2=O)cc1OC	6.0	/
CC1CC(=O)C2=C(C1)Nc1ncnn1C2c1ccccc1 (centres undefined)	7.0	5.8
COc1ccc(C2=CC(c3cccs3)NC(=S)N2)cc1 (centres undefined)	4.0	5.7
Cc1nnc(SCc2ccc(C#N)cc2)s1	9.0	0.7
O=C(O)c1cn(-c2ccc(F)c(F)c2)c2c(F)c(F)c(F)c(F)c2c1=O	19.0	1.1
Oc1c(Br)cc(Cl)cc1/C=N/c1ccccn1	8.0	25.2
CSc1sc(C#N)c2c1C(=O)CC(c1ccccc1)C2 (centres undefined)	/	-0.4
Cn1cccc1/C=C1/SC(=S)N(c2ccc(C(=O)O)cc2)C1=O	-35.0	/
CCCn1c2ccccc2c2nnc(SCOC(=O)CN3C(=O)c4ccccc4C3=O)nc21	7.0	/
CNC(C)c1nc2ccccc2s1 (centres undefined)	10.0	/
CCOC(=O)C1=C(C)Nc2nc3ccccc3n2C1c1ccccc1 (centres undefined)	2.0	1.4
CC(=O)Nc1ccc(-c2nc(-c3ccccc3)c3ccccc3n2)cc1	/	-0.5
CC1CN(CC(=O)N(c2ccc(Nc3ccccc3)cc2)C(C)C)CC(C)O1 (centres undefined)	11.0	/
CCOC(=O)/C(C#N)=C/Nc1ccc2c(c1)OCO2	/	1.7
Cc1cccc(/C=C2\CS/C(=C\c3cccc(C)c3)C2=O)c1	-9.0	7.3
CC(C)N1C(=O)C2C(c3ccco3)NN(Cc3ccccc3)C2C1=O (centres undefined)	-4.0	8.6

(more compounds)
SMILES	Sa helicase inh	MgrA-DNA mod
O=C(COC(=O)c1cc2ccccc2oc1=O)c1ccccc1	1.0	0.2
CCCCC[C@H](O)C/C=C1/C(=O)C=C[C@@H]1C/C=C\CCCC(=O)O	/	3.0
COc1ccccc1NC(=O)C1=C(C)NC2=C(C(=O)CC(C)(C)C2)C1c1ccc(Cl)cc1Cl (centres undefined)	3.0	-0.8
FC(F)(F)c1nnc2n1N=C(c1ccccc1)CS2	-16.0	/
CCCCNc1ccc(C(F)(F)F)cn1	-5.0	3.0
CCC(O)c1nc2ccccc2n1C (centres undefined)	35.0	/
CC(=O)N=C1SC2CS(=O)(=O)CC2N1c1ccc2c(c1)OCO2 (centres undefined)	-12.0	/
CN(C(=O)c1ccc2c(Cl)c3c(nc2c1)CCCC3)C1CCCCC1	14.0	4.4
CN1c2ccccc2C(=O)/C(=C\Nc2ccccn2)S1(=O)=O	/	-0.3
Cc1cc2c(c(=O)n1C)C(c1ccc(C(C)C)cc1)C(C#N)=C(N)O2 (centres undefined)	10.0	/
O=C(Nc1ccccn1)C1CCCN1S(=O)(=O)c1ccc(Cl)cc1 (centres undefined)	-1.0	-1.1
CCOC(=O)Oc1c(Cl)cc2oc(=O)sc2c1Br	25.0	19.8
CC(=O)Nc1ccc(-c2ccc(NC(C)=O)cc2)cc1	/	0.3
S=C(c1ccc(Br)cc1)N1CCCC1	14.0	0.9
CN1CCN(Nc2ncnc3sc4c(c23)CCCC4)CC1	-12.0	/
CCn1c(-c2cc(Br)cc(OC)c2O)nc2cc(S(=O)(=O)N(C)C)ccc21	1.0	/
CCc1ccc(C(=O)NCCc2nnc(SC)n2CC)cc1	-9.0	-0.8
O=C(/C=C/c1ccccc1)NCCn1ccc2ccccc21	-22.0	/
Nc1nc(NC(=O)CCC(=O)O)nn1-c1ccccc1	-2.0	-1.2
O=C(Nc1cccc(F)c1)c1cc(S(=O)(=O)N2CCCCC2)ccc1F	3.0	-0.4
CC(C)(C)NS(=O)(=O)c1cccc2nsnc12	13.0	0.6
O=C1NC(=O)C(Nc2cccc3ccccc23)S1 (centres undefined)	18.0	7.3
O=C(c1cnn(C(=O)CCN2CCN(c3ccccc3)CC2)c1)c1ccccc1O	14.0	/
COc1nc(OC)nc(N2CCN(c3cc(C)ccc3C)CC2)n1	7.0	/
Cc1cc(C)cc(Oc2ccc(C#N)c(C#N)c2)c1	-1.0	1.2
C=CCNC(=O)C1C2C=CC(C2)C1C(=O)OC(C)C (centres undefined)	5.0	-0.5
COc1nc(C)nc(/N=C\NO)n1	24.0	/
Cc1ccc(SCC(=O)NC(=O)C(C)C)cc1C	-2.0	/
Cn1cnnc1SCC(=O)Nc1ccccc1C(=O)Nc1ccc2c(c1)OCO2	-12.0	/
CCCNC(=O)C(C)N1Cc2ccccc2C1=O (centres undefined)	-7.0	/
CC1CCCCC1NC(=O)COn1nnc2ccc(Cl)cc21 (centres undefined)	-2.0	/
O=C(Cn1cnc2c(oc3ccccc32)c1=O)OCc1cc(F)cc2c1OC(c1ccsc1)OC2 (centres undefined)	-4.0	/
COc1cccc(OCC(F)(F)F)c1C#N	/	-0.9
Cc1cc(C)n(CCCNc2nc(-c3cccnc3)nc3ccccc23)n1	-7.0	/
Cc1cc2nc(-c3cccc(NC(=O)c4cc([N+](=O)[O-])ccc4Br)c3)oc2cc1C	/	-1.1
Cc1ccc(-c2csc(NC(=O)C(C)C)c2C(=O)O)cc1	-5.0	-1.1
CC(C)N1CCCC(C(=O)N2CCCCCC2)C1 (centres undefined)	4.0	/

Arranged by formula weight (ascending): 3 of the compounds above.
SMILES	Sa helicase inh	MgrA-DNA mod
Cc1cc(C)n(CCCNc2nc(-c3cccnc3)nc3ccccc23)n1	-7.0	/
O=C(c1cnn(C(=O)CCN2CCN(c3ccccc3)CC2)c1)c1ccccc1O	14.0	/
Cc1cc2nc(-c3cccc(NC(=O)c4cc([N+](=O)[O-])ccc4Br)c3)oc2cc1C	/	-1.1

Individual results from the entries so far.
Sa helicase inh result of CC(C)N1CCCC(C(=O)N2CCCCCC2)C1 (centres undefined) : 4.0
Sa helicase inh result of O=C(Cn1cnc2c(oc3ccccc32)c1=O)OCc1cc(F)cc2c1OC(c1ccsc1)OC2 (centres undefined) : -4.0
MgrA-DNA mod result of COc1cccc(OCC(F)(F)F)c1C#N : -0.9
Sa helicase inh result of Cc1ccc(SCC(=O)NC(=O)C(C)C)cc1C : -2.0
Sa helicase inh result of CC1CCCCC1NC(=O)COn1nnc2ccc(Cl)cc21 (centres undefined) : -2.0
Sa helicase inh result of O=C(c1cnn(C(=O)CCN2CCN(c3ccccc3)CC2)c1)c1ccccc1O : 14.0
MgrA-DNA mod result of C=CCNC(=O)C1C2C=CC(C2)C1C(=O)OC(C)C (centres undefined) : -0.5
